# AmpC nodet inh: Promiscuous and Specific Inhibitors of AmpC Beta-Lactamase (assay without detergent); P00811; AmpC nitrocefin hydrolysis, absorbance 480 nm, no detergent; potencies from a single point are estimates; Potency, µM (titrated, usually from 28.7 µM), for inactives: at the highest dose activity change, negative = inhibition; hit rate 1.8% among 71,000; active = falling curve, for most hits resting on a single point; inconclusive = weak or doubtful change; inactive = flat or rising curve; note: % of control where 0% means no effect; about half of the hits show no inhibition at the top dose; a quarter of the inactives give rising signals
# Target sequence (P00811 whole entry, looked up): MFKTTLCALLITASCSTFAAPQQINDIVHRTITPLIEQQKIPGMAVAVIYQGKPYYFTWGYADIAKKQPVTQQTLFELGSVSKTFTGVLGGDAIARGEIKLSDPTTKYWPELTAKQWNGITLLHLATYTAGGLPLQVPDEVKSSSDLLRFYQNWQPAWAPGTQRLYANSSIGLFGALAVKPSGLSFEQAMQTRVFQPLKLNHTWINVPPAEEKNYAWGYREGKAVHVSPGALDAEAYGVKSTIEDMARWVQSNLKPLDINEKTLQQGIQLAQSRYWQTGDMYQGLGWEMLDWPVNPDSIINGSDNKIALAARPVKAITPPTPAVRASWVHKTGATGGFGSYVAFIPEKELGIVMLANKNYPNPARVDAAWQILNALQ
#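 AmpC, 20 mM phosphate pH 7.0; 15 min cpd preinc, RT; start with nitrocefin (800 uM stock); A480 kinetic read, 20 s intervals, 4 min. No-enzyme wells = negative control.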
# * marks the source's active call; other numbers are inactive results; u = inconclusive; & = joins results of further samples; [ ] = another dose, or the depositor's remark. Potency is the fitted concentration of half-maximal effect.
# Start of the data: the first five entries (preview)
smiles,AmpC nodet inh
Cc1cc(C(=O)NCc2ccc3c(c2)OCO3)n(-c2ccccc2)n1,12%
Cc1oc(-c2ccccc2F)nc1CS(=O)(=O)CC(=O)NCc1ccco1,9%
COc1ccc(NC(=O)N2CCC3(CC2)CCN(C(=O)c2cc(C(F)(F)F)cc(C(F)(F)F)c2)CC3)cc1,1%
CCN(CC)S(=O)(=O)c1ccc2oc(SCc3ccc(F)cc3)nc2c1,11%
O=c1c(CN2CCN(Cc3ccccc3)CC2)coc2ccc(Cl)cc12,14%

# Results, from the start:
smiles,AmpC nodet inh
Cc1cc(C(=O)NCc2ccc3c(c2)OCO3)n(-c2ccccc2)n1,12%
Cc1oc(-c2ccccc2F)nc1CS(=O)(=O)CC(=O)NCc1ccco1,9%
COc1ccc(NC(=O)N2CCC3(CC2)CCN(C(=O)c2cc(C(F)(F)F)cc(C(F)(F)F)c2)CC3)cc1,1%
CCN(CC)S(=O)(=O)c1ccc2oc(SCc3ccc(F)cc3)nc2c1,11%
O=c1c(CN2CCN(Cc3ccccc3)CC2)coc2ccc(Cl)cc12,14%
CN1CCc2c(sc3c2C(=O)NC(c2ccco2)N3)C1 (stereo unspecified),9%
O=C(Nc1ccccc1C(=O)N1CCOCC1)c1ccco1,-10%
COc1ccc(CN(CC2CCCO2)S(=O)(=O)c2ccc(C(=O)O)cc2)cc1OC (stereo unspecified),4%
CCOc1ccc2nc(SC(CC)C(=O)Nc3cc(C)on3)sc2c1 (stereo unspecified),14%
C=C(C)C(=O)OCC1CO1 (stereo unspecified),-22%
NS(=O)(=O)c1ccc(N=Nc2ncccc2O)cc1,-1%[5.75 µM]
Cn1c(=O)oc2cc(S(=O)(=O)N3CCC(C(=O)Nc4ccc(OC(F)(F)F)cc4)CC3)ccc21,22%
O=C(O)c1ccc2c3c1cccc3c(=O)n1c3ccccc3nc21,2%
Cn1c(Cc2cccs2)n[nH]c1=S,2%
Cn1c(=O)c2c(-c3ccccc3)n(Cc3cccnc3)cc2n(C)c1=O,26%
NN=C(N)N,20%&-4%&-4%
Cc1cc(C)nc(SCCS(=O)Cc2ccc(Cl)cc2)n1 (stereo unspecified),42%
COC(C)=O,6%
CCNc1ncc2nc(CCc3ccccc3)c(=O)n(Cc3cccc(OC)c3)c2n1,-1%
Cc1ccc(NC(=O)c2noc3c2CCCCC3)cc1,-10%
C=C(CO)[C@H]1Cc2c(ccc3c(=O)c4c(oc23)COc2cc(OC)c(OC)cc2-4)O1,99%
OCC#CCSc1nnc(-c2ccncc2)o1,-13%
CCCCCCSC1=C(C#N)C(c2ccc(O)cc2)CC(=O)N1 (stereo unspecified),u
O=C(C1CCCN(S(=O)(=O)Cc2ccccc2)C1)N1CCc2ccccc21 (stereo unspecified),38%
CN1C(=O)N(C)C(=O)C2(Cc3ccccc3N3CCOCC32)C1=O (stereo unspecified),-7%
O=C(/C=C\c1ccc(O)c(O)c1)O[C@@H]1C[C@](O)(C(=O)O)C[C@@H](O)[C@@H]1O,-1%[12.8 µM]
O=C(O)CNC(=O)[C@@H](CS)Cc1ccccc1,2%[12.8 µM]
CCN(CC(=O)Nc1cccc(C(C)=O)c1)S(=O)(=O)c1ccc(OC)cc1,-3%
Cc1ccc(NC(=O)C2CCCN(c3ncccn3)C2)cc1F (stereo unspecified),16%
COc1ccc(OC(C)=O)c(C2c3cc(OC)c(OC)cc3CCN2C(C)=O)c1 (stereo unspecified),75%
c1ccc(-c2nnn(C34CC5CC(CC(C5)C3)C4)n2)cc1,-3%
COc1cc(NC(=O)Cc2cccs2)ccc1-n1cnnn1,-13%
O=C1CCCN1CN(C(=O)c1ccccc1)c1ccc(F)cc1,-4%
CN(C)C=Nc1nonc1N,2%
CC(C)(C)C(=O)CN1C(=O)C2(OCCO2)c2ccccc21,-8%
O=C(Cn1ncc2c1-c1ccccc1OC2)Nc1nc2ccccc2s1,-7%
CCOc1cc(C2NC(=O)NC(O)(C(F)(F)F)C2C(=O)c2ccc(OC)cc2)ccc1O (stereo unspecified),21%
O=C(c1cc(C(F)(F)F)cc(C(F)(F)F)c1)N1CCC[C@@]2(CCN(Cc3nccs3)C2)C1,103%
COc1ccc(CCNS(=O)(=O)c2ccc3oc(C(=O)O)c(C)c3c2)cc1OC,-4%
O=c1oc2ccccc2c2nccnc12,-6%
CCOc1ccccc1NC(=O)N1CCCC1C(=O)Nc1ccc(NC(C)=O)cc1 (stereo unspecified),6%
Cn1c(=O)c2[nH]c(SCCN3CCOCC3)nc2n(C)c1=S,-6%[5.75 µM]
O=C(O)CCCc1nc(-c2ccccc2)no1,7%
CC(C)(C)c1cnnn1-c1ccc(-c2csc(N)n2)cc1,0%
CC(C)C[C@@H](CC(=O)N[C@H](CC(=O)N[C@@H]1CCCC[C@H]1C(=O)N[C@H](CC(=O)N[C@@H](CCC(=O)O)CC(=O)O)Cc1c[nH]c2ccccc12)C(C)C)NC(=O)[C@@H]1CNCC[C@H]1N,141%
Cn1c(=O)c2c(nc(NCCc3ccccc3)n2Cc2ccc(F)cc2)n(C)c1=O,70%
CCn1c(SCC(=O)Nc2cccc(NC(=O)c3ccco3)c2)nnc1-c1cccs1,0%
CS(=O)(=O)N(CC(=O)NCc1ccncc1)Cc1ccc(Cl)cc1,-2%
O=C(CN(c1ccc(F)cc1)S(=O)(=O)c1ccc2c(c1)OCCO2)Nc1ccc2c(c1)OCO2,-21%
COc1ccc(CCNC(=O)CCn2c(=O)oc3ccccc32)cc1,23%

# Next entries
smiles,AmpC nodet inh
CC1CCC(NC(=O)CN2CCCN(Cc3ccc(F)cc3Cl)C2=O)CC1 (stereo unspecified),84%
CCOC(=O)C1CCN(C(C(=O)NC2CCCCC2)c2ccc(OC)cc2)CC1 (stereo unspecified),80%
CSc1nnc2c(n1)OC(c1ccc(C(=O)O)cc1)N(C(C)=O)c1ccccc1-2 (stereo unspecified),7%
COC(=O)CSc1nnc(-c2ccncc2)o1,-4%
COC(=O)C1=C(C)N(CCc2ccccc2)C(=O)C1,9%
Cc1cccc(-n2c(=O)[nH]c3c(C(N)=O)nc(C(C)C)nc32)c1,16%
Clc1nc2sccn2c1/C=N/n1cnc2ccccc21,38%
O=C1CN(CC(=O)N2CCCCC2)c2ccccc2O1,8%
O=C(O)CCC(=O)N1CCc2cc(S(=O)(=O)N3CCC(Cc4ccccc4)CC3)ccc21,65%
Cc1ccc(NC(=O)CSc2nnc(CCCCCNC(=O)OC(C)(C)C)o2)c(C)c1,63%
O=C(Cc1ccc(Cl)c(Cl)c1)N1CCCC[C@H]1CN1CCCC1,28%&9%
CCc1c(C)c2cc(Cl)c(O)c(CN(CC)CC)c2oc1=O,14%
O=C1CSC(c2ccco2)N1 (stereo unspecified),-14%
O=C(NC1CC1)c1ccc(S(=O)(=O)NCC2CCCCC2)cc1,-13%
NC(=O)Nc1nc2ccccc2[nH]1,-24%
CCCCN(CCCNC(=O)CN1C(=O)COc2ccccc21)c1ccccc1,36%
CCc1c(C)[nH]n(CCC#N)c1=O,-5%
Cc1ccc(N2CC(C(=O)NC3=NCCS3)CC2=O)cc1C (stereo unspecified),7%
CC(=O)Oc1cc(OC(C)=O)c2c(=O)cc(-c3ccc(OC(C)=O)c(OC(C)=O)c3)oc2c1,16%
O=C(O)c1ccc(CSc2nnc(-c3ccncc3)n2CC2CCCO2)cc1 (stereo unspecified),0%
CCOCCCNC(=O)c1ccc(OC)cc1,16%
Cc1ccc(Oc2nc3ccccc3n3c(C)nnc23)cc1,21%
COc1cc(C(=O)NCc2nnc(SCC(=O)N3CCC(C)CC3)o2)cc(OC)c1OC,35%
CCC(C)(C)NC(=O)C(c1ccc(F)cc1)N(Cc1ccco1)C(=O)c1cnccn1 (stereo unspecified),72%
O=C(COC(=O)C1CCCN1C(=O)c1cccs1)Nc1ccc2c(c1)OCO2 (stereo unspecified),0%

# A draw from above in order of number of heavy atoms, high to low.
smiles,AmpC nodet inh
O=C(COC(=O)C1CCCN1C(=O)c1cccs1)Nc1ccc2c(c1)OCO2 (stereo unspecified),0%
Clc1nc2sccn2c1/C=N/n1cnc2ccccc21,38%
O=C1CSC(c2ccco2)N1 (stereo unspecified),-14%

# The results go on.
smiles,AmpC nodet inh
O=c1cnc2cncnc2n1Cc1ccc(F)cc1,23%
CCOC(=O)N1CCN(C/C(C)=C/c2ccccc2)CC1,56%
O=C(CSC1=NCCS1)Nc1ccccc1F,5%
CCOc1ccc(-c2nnc3ccc(SCC(=O)NCc4ccco4)nn23)cc1,22%
Fc1ccc(C(c2nnnn2C2CCCC2)N2CCN(Cc3ccncc3)CC2)cc1 (stereo unspecified),105%
CC(C)CC1C(C#N)=C(N)SC(N)=C1C#N,-3%
Nc1ccccc1N=Nc1c(S(=O)(=O)O)cc2cc(S(=O)(=O)O)cc(O)c2c1O,-5%[5.75 µM]
CCSc1nnc(-c2ccc(Cl)cc2Cl)o1,1%
COC(=O)[C@@]1(Cc2ccc(F)cc2)[C@H]2c3cc(C(=O)N(C)C)n(Cc4nc5ccccc5[nH]4)c3C[C@H]2CN1C(=O)c1ccccc1,169%
CCOC(=O)N1CCN(C(=O)c2cc3c(ccc4ccccc43)oc2=O)CC1,42%
CC1CCN(S(=O)(=O)c2ccc(S(=O)(=O)NCC3COCCO3)cc2)CC1 (stereo unspecified),14%
COc1cccc(N(CC(=O)NC2CCCC2)C(=O)Cn2nnc(-c3ccc(C)cc3)n2)c1,59%
Nc1nnc(CCC2CCCCC2)s1,-8%
CCOC(=O)c1[nH]c(CSc2nnc(-c3ccc(OC)cc3)o2)c(C(=O)OCC)c1C,3%
O=c1c2cc(N3CCOCC3)ccc2[nH]c(=S)n1CCCN1CCCC1,6%
COc1ccc(-n2c(Cc3cccn3C)nnc2SCC(=O)Nc2cccc(C)c2C)cc1,82%
CCOC(=O)N1CCN(C(=O)COc2ccccc2OC)CC1,13%
CCOc1ccc(NC(=O)C2CC=CCC2C(=O)O)cc1 (stereo unspecified),8%
CN(C)S(=O)(=O)c1ccc(C(=O)Oc2cc(=O)[nH]c3ccccc23)cc1,24%
CCc1c(O)nc(SCc2ccccc2)n(C(C)CC)c1=O (stereo unspecified),-11%
COc1ccc(-c2cc(C(=O)Nc3c(C)nn(Cc4ccccc4Cl)c3C)no2)cc1,31%
CCN(CC)C(NC(=O)c1ccccc1)C(=O)c1ccccc1 (stereo unspecified),3%
COC(=O)c1ccc(C(NC(=O)c2ccccc2)[C@]2(C)C[C@H]2C2CCCCC2)cc1 (stereo partly specified),-8%
CCN1CCN(C(=O)c2cc3c(=O)n(C)c4ccccc4c3n2C)CC1,26%
CCOc1ccc(-c2nnc(N)o2)cc1,-8%

# Three of the compounds above, as labelled records.
> O=c1cnc2cncnc2n1Cc1ccc(F)cc1
  AmpC nodet inh: 23%
> CCOC(=O)N1CCN(C/C(C)=C/c2ccccc2)CC1
  AmpC nodet inh: 56%
> O=C(CSC1=NCCS1)Nc1ccccc1F
  AmpC nodet inh: 5%

# Next section:
smiles,AmpC nodet inh
N#Cc1cn(CC(=O)NCCc2c[nH]c3ccccc23)c2ccccc12,-22%
CCn1c2ccccc2c2nnc(SCc3ccccc3)nc21,4µM*[single pt active]
Cc1cc(C(C)(C)C)cc(S(=O)(=O)NCC(=O)O)c1C,-5%
COC(=O)CSc1nc2c(c(=O)[nH]c(=O)n2C)n1CCC(C)C,5%
CC(=O)c1cccc(NC(=O)NCCS(C)=O)c1 (stereo unspecified),-2%
CC(=O)Nc1ccc(OCC(O)CN2CCN(Cc3ccccc3)CC2)cc1 (stereo unspecified),-11%
COc1ccc(-c2nnc(-c3ccc(N(C)C)cc3)o2)cc1,49%
O=C(NC1(C(F)(F)F)NC(=O)N(Cc2cccnc2)C1=O)c1cccs1 (stereo unspecified),-13%
Cc1ccc(C(=O)Nc2ccc3c(c2)ncn3C)cc1,10%
COc1ccc2nc(SCC(=O)Nc3ccc4c(c3)OCCO4)[nH]c2c1,-22%
COC(=O)c1sccc1NC(=O)c1ccncc1,-13%
Cc1ccc(-c2cc(C(=O)N3CCCC3)no2)cc1,21%
Cc1ccc2cc(CN(Cc3cccs3)Cc3nnnn3CC3CCCO3)c(=O)[nH]c2c1 (stereo unspecified),78%
O=C(c1ccc(CN2CCOCC2)cc1)N1CCN(Cc2ccccc2)CC1,70%
O=C(CSc1n[nH]c(-c2ccc(S(=O)(=O)NC3CCCCC3)cc2)n1)N1CCCC1,3%
Nc1nc(N)nc(-c2ccccn2)n1,-6%
COC(=O)CCN1CCC(C(N)=O)CC1,0%
COc1ccccc1CNC(=O)c1c(O)c2cc(OC)c(OC)cc2[nH]c1=O,-22%
O=C1NC(=O)C2(CCC(C(=O)O)C2)N1 (stereo unspecified),-12%
O=C(CSc1nnc(Cc2ccccc2)n1-c1ccc(Cl)cc1)N1CCOCC1,126%
CCC(Sc1nc(C)cc(=O)[nH]1)C(=O)Nc1sc2c(c1C#N)CCCC2 (stereo unspecified),11%
COc1ccc(C(=O)Nc2ccc(S(=O)(=O)NCc3ccco3)cc2)cc1OC,-12%
COc1cccc(-c2cc(NCCc3c[nH]c4ccc(OC)cc34)ncn2)c1,22%
CSc1nc(C)cc(SCCO)n1,7%
C=C(C)C(=O)OC,-10%

# This is a subset (hit frequency here may not be typical).
